# Rango dissoc inh: inhibitors of RanGTP-induced Rango-importin beta complex dissociation. O95149+P62826. Biochemical FRET Rango-importin beta, RanGTP-induced dissociation. Potency, µM (highest dose often 46.1 µM), for the others: at the top dose activity change, negative = inhibition. 340,000 tested, 0.071% active; active means falling FRET ratio curve, often poorly fitted, with flat reads before Ran was added; inconclusive means other falling curves, or compound fluorescence or quenching; inactive means flat or rising ratio curve;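 further: potency means the concentration at half of the fitted maximal effect; % of control where 0% means no effect; nearly all actives have a fitted effect of over 45% in size; -100% = wells without RanGTP and RCC1; the record marks most hits as doubtful in a second field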
#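 Rango/importin beta premix (0.1/0.25 uM final), PBS + 1 mM DTT + 0.02% Tween-20 + 0.1% BSA; cpd 5 min RT; FRET pre-read; + RanGTP-RCC1 (0.6 uM Ran, 2 mM GTP, 0.2 uM RCC1); 45 min RT; FRET post-read, ex 430, em 486/530 nm.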
# miR-21 FLuc: miR-21 reporter, rising signal; HeLa miR-21 FLuc reporter, luciferase, 48 h; Potency, µM (top dose mostly 38.3 µM), for inactives: at the top dose reporter change, positive = more light; 340,000 tested, under 10 active; active = well fitted rising curve with a large enough effect; inconclusive = small, poorly fitted or top-dose-only effect; inactive = no such curve, though single readings can be large or run the other way;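 further: % of control where 0% means no effect; miR-21 action dims this reporter so a rising signal means less miR-21 action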
#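 Luminescence from a firefly luciferase reporter carrying a miR-21 binding site downstream, stably expressed under a CMV promoter in HeLa cells that make miR-21 endogenously, reports miRNA modulation after 48 h compound exposure up to approximately 40uM final.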
# Rango complex inh: prevents formation of the Rango-importin beta complex; Rango CFP/YFP FRET sensor + importin beta, 45 min; Potency, µM (series often up to 92.2 µM), for inactives: at the highest dose inhibition of complex formation; 340,000 tested, 0.031% active; active = rising FRET ratio curve, often small or poorly fitted; inconclusive = mostly compound fluorescence or quenching in the first reads; inactive = flat curves in all reads;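 further: potency means the concentration at half of the fitted maximal effect; 0% = DMSO wells and 100% = buffer wells lacking importin beta; nearly all actives have a fitted effect of over 15% in size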
#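 FRET biosensor Rango (snurportin 1 IBB between N-terminal EYFP and C-terminal Cerulean), 50 nM in PBS/1 mM DTT/0.02% Tween-20/0.1% BSA, preincubated 5 min RT with compound; 0.125 microM importin beta added, 45 min RT, CFP/YFP FRET ratio read.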
# GLA inh pH 4.5: inhibitors of human alpha-galactosidase A at pH 4.5; P06280; purified enzyme, 4-MU-alpha-Gal fluorescence, pH 4.5; 230,000 tested, under 10 active; activity change, negative = inhibition, % at 105 µM; inconclusive = small, poorly fitted or top-dose-only inhibition, or a rising curve; inactive = flat fitted curve, though single readings scatter; no compound was filed as active;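 further: 0% = full activity with enzyme and -100% = basal without enzyme; dose as in the result columns while the protocol names 77 µM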
# Target sequence (P06280 whole entry, looked up): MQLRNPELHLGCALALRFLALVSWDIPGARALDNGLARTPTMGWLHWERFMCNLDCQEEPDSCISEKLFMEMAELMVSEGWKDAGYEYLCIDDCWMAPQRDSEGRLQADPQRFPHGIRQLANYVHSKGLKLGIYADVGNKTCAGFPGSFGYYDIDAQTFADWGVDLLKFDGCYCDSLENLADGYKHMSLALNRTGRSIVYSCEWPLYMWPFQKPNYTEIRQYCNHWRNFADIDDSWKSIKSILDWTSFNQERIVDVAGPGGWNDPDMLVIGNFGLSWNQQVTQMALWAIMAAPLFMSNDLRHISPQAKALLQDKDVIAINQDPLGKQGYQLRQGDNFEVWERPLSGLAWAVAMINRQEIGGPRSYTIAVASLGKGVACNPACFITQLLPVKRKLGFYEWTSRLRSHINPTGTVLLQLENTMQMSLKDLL
# Numbers without * were called inactive; ? = inconclusive; / = no result given; & = joins results of further samples; [ ] = dose if it differs, or a comment. These rows are one share of the data, so the mix of outcomes need not match the whole.
Rango complex inh | miR-21 FLuc | GLA inh pH 4.5 | Rango dissoc inh | SMILES
1.2% | 21% | / | 0% | COc1cccc(CN(C)C(=O)c2cc(S(=O)(=O)N3CCN(c4ccccc4)CC3)ccc2Cl)c1
2.5% | 3% | -3 | -13% | CC(=O)C(=Nc1ccc(Cl)cc1Cl)NNc1cccc(Cl)c1
-2.0% | -8% | 3 | 14% | CC1CCCCN1C(=O)c1ccc(OC2CCN(S(=O)(=O)N(C)C)CC2)cc1 (stereo not given)
-2.6% | 1% | / | 1% | CCn1c(SCC(=O)Nc2nccs2)nnc1-c1cccnc1
-3.8% | / | / | -9% | CCN(CC(=O)Nc1c(F)cccc1F)C(=O)c1ccc(N2CCCC2)c([N+](=O)[O-])c1
0.0% | -4% | -8 | 0% | O=S(=O)(c1cccc2c(S(=O)(=O)N3CCCC3)cccc12)N1CCCC1
2.0% | 0% | 2 | 0% | Cc1c(C)[n+](=O)c(-c2ccco2)c(C)n1[O-]
3.7% | -16% | -11 | -7% | O=C(c1ccc2c(c1)OCCO2)C1CCN(S(=O)(=O)c2cccc(F)c2)CC1
-1.6% | / | / | 3% | C[C@H](CO)N1C[C@H](C)[C@@H](CN(C)S(C)(=O)=O)Oc2ccc(NC(=O)Nc3ccc4c(c3)OCO4)cc2C1=O
1.7% | 1% | / | 4% | CC(=O)Nc1ccc(NC(=O)c2ccc3c(c2)C(=O)N(c2ccccc2C)C3=O)cc1
2.2% | 7% | -6 | 5% | COc1ccc(OC)c(NC(=O)CSc2ncnc3c2cnn3-c2ccccc2Cl)c1
-4.7% | -1% | -4 | 0% | CC(=O)Nc1ccc(NC(=O)Cn2nc([N+](=O)[O-])c(Br)c2C)cc1
-0.5% | -7% | -5 | 3% | COc1ccc(C=O)cc1CSc1ccccn1
-6.1% | -6% | -10 | ? | COC(=O)[C@@H](NC(=O)Nc1cccc(Br)c1)C(C)C
0.5% | -6% | 0 | 19% | CCC(C)c1ccc(O)c(NC(=S)NC(=O)c2cccnc2)c1 (stereo not given)
0.0% | 6% | -1 | -6% | O=C(COC(=O)c1ccc([N+](=O)[O-])o1)Nc1cccc(S(=O)(=O)N2CCCCC2)c1
-1.0% | 1% | 4 | -13% | Cc1cc(NC(=O)CSc2ccc3nnc(-c4ccccn4)n3n2)no1
-1.1% | 0% | / | 12% | CC(=O)NCC1CCCN(C(=O)c2ccc(OC3CCN(Cc4ccccn4)CC3)cc2)C1 (stereo not given)
-2.3% | 0% | / | -14% | COc1cccc(CNC(=O)C2CCCN(S(=O)(=O)N3CC(C)CC(C)C3)C2)c1 (stereo not given)
0.3% | -14% | -1 | 3% | COc1ccccc1NC(=O)Cn1c(=O)n2nc(C)nc2c2ccccc21
3.5% | -11% | -1 | -10% | Cc1csc(=Nc2ccccc2)n1CCO
-1.5% | -26% | 3 | -3% | O=C(CSc1nnc2ccccn12)Nc1ccc2c(c1)OCO2
? | -5% | / | -17% | CCN(CC(=O)Nc1c(F)cccc1F)C(=O)/C=C/c1cn(Cc2ccccc2)nc1-c1cccnc1
1.8% | -26% | -10 | 10% | Cc1nc(SCn2nnc3ccccc3c2=O)nc(C)c1C
0.4% | -1% | 1 | -12% | O=C(O)c1cccc(S(=O)(=O)NCCc2ccccc2)c1
-1.1% | 0% | 3 | 1% | C=CCNc1nc(C)nc(OC)n1
14% | / | / | -10% | O=C(Nc1ccc(Cl)cc1)C1(S(=O)(=O)c2ccccc2)CC1
5.4% | -1% | -2 | 9% | CC(=O)c1c(C(C)=O)c(C)n(C2CCCCC2)c1C
-4.1% | 1% | 2 | 0% | CC1C/C(=N\NC(=O)CCc2ccc(S(=O)(=O)N3CCOCC3)cc2)CC(C)(C)C1 (stereo not given)
0.9% | -20% | -1 | -3% | Cc1cc(C)n(/N=C/c2cccs2)c(=O)c1C#N
2.8% | -11% | 0 | 10% | O=C1c2ccccc2S(=O)(=O)N1CC(O)COc1ccc(Br)cc1 (stereo not given)
-1.9% | 3% | 3 | -7% | COc1ccc(CCNC(=O)CSc2nc3[nH]ncc3c(=O)n2-c2ccccc2OC)cc1OC
-3.2% | -16% | -19 | 13% | O=C(CSc1nnc(C2CC2)n1Cc1ccccc1)Nc1cccnc1Cl
-0.1% | -7% | -10 | ? | COC(=O)c1cc(NC(=O)c2c(-c3c(Cl)cccc3Cl)noc2C)ccc1N1CCOCC1
0.3% | 2% | 2 | -15% | COc1ccc(/C=C2\SC(=O)N(CCNC(=O)C3CC(=O)N(c4ccccc4)C3)C2=O)cc1 (stereo not given)
/ | 2% | -7 | / | Cc1ccc(-n2nc(C)c3c(=O)[nH]c(C(F)(F)F)nc32)cc1
-2.6% | 18% | -1 | -3% | CC(C)Cn1cnc2c(c1=N)C(c1ccccc1)C1=C(CC(C)(C)CC1=O)O2 (stereo not given)
-2.8% | 6% | -6 | -2% | O=C(N/N=C/c1cccc(Oc2ccccc2)c1)c1ccccc1Br
-4.5% | / | / | ? | O=[N+]([O-])c1ccc(NN=Cc2cc(Br)ccc2O)nc1
-0.1% | -4% | 2 | -1% | S=c1[nH]nc(COc2ccccc2)n1/N=C/c1ccccn1
-3.4% | -8% | / | -5% | O=C1C(=O)N(c2ccccn2)C(c2ccc(F)cc2)/C1=C(/O)c1ccc(Br)cc1 (stereo not given)
-5.6% | -18% | 3 | -25% | CC(=O)N1CCC2(CC1)C/C(=N\NC(=S)Nc1ccccc1C)c1cc(O)ccc1O2
1.0% | -16%&3% | 2&7 | 8% | O=C(NCc1ccco1)Nc1ccc([N+](=O)[O-])cc1
3.0% | 2% | / | -4% | O=C(CSc1nnc(COc2ccc(Br)cc2)o1)NC1CCCCC1
-0.7% | 3% | -5 | 3% | O=C(COC(=O)C1CC2C=CC1C2)Nc1cccc(S(=O)(=O)N2CCCCCC2)c1 (stereo not given)
1.7% | 11% | / | -12% | C[C@@H](NC(=O)c1nc[nH]c1C(=O)NCC(=O)OC(C)(C)C)c1ccccc1
0.6% | -1% | 3[21.1 µM] | 2% | Cc1ccccc1NC(=O)CCC(=O)N/N=C/c1ccc(F)cc1
-4.8% | -8% | -3 | 0% | O=S(=O)(/N=C(/c1ccccc1)N1CCCCC1)c1ccccc1
4.7% | 12% | / | -7% | COc1ccc(-c2nc(C(=O)NCCCN3CCOCC3)cc3c2[nH]c2ccccc23)cc1OC
1.0% | -16% | / | 14% | CCN(CC)C1CCN(C(=O)c2ccc(OC3CCN(CCc4ccccc4)CC3)cc2)C1 (stereo not given)

# Retrieved by compound from above:
Rango complex inh | miR-21 FLuc | GLA inh pH 4.5 | Rango dissoc inh | SMILES
1.0% | -16% | / | 14% | CCN(CC)C1CCN(C(=O)c2ccc(OC3CCN(CCc4ccccc4)CC3)cc2)C1 (stereo not given)
-3.4% | -8% | / | -5% | O=C1C(=O)N(c2ccccn2)C(c2ccc(F)cc2)/C1=C(/O)c1ccc(Br)cc1 (stereo not given)
0.6% | -1% | 3[21.1 µM] | 2% | Cc1ccccc1NC(=O)CCC(=O)N/N=C/c1ccc(F)cc1
1.7% | 11% | / | -12% | C[C@@H](NC(=O)c1nc[nH]c1C(=O)NCC(=O)OC(C)(C)C)c1ccccc1

# Further entries follow.
Rango complex inh | miR-21 FLuc | GLA inh pH 4.5 | Rango dissoc inh | SMILES
-4.3% | 25% | 1 | -5% | Cc1cccc(NC(=S)N/N=C2\CC(C)(C)Oc3ccc(O)cc32)c1
-1.9% | -49% | / | -4% | COc1ccc(OCc2cc(C(=O)N[C@H]3CCCCNC3=O)no2)c(Cl)c1
0.9% | 4% | 8 | 11% | COc1ccc(OC)c(NC(=S)NCc2cccnc2)c1
-1.2% | 1% | 11 | -3% | COc1ccc(CCNC(=O)Cn2c(=O)n(CCCC(=O)NCc3ccco3)c(=O)c3sccc32)cc1OC
3.3% | 9% | / | 7% | Cc1cc(OCC(=O)NCc2cccnc2)c2c(C)c(C)c(=O)oc2c1
-1.0% | 3% | -1 | -18% | O=C1CC(SC2=NCCS2)C(=O)N1c1cccc(Cl)c1Cl (stereo not given)
1.9% | -1% | -3 | 1% | CCC(/C=N/Nc1ccc(S(=O)(=O)N2CCCC2)cc1[N+](=O)[O-])CC
0.2% | -12% | -2 | -3% | Cc1[nH]c(=S)c(C#N)c(C)c1CCC#N
0.8% | -1% | 5 | 1% | COc1ccc(Cl)cc1NC(=S)Nc1ccccc1F
-0.9% | 2% | 1 | -7% | COCCCN(CC(=O)O)S(=O)(=O)c1cccc(Cl)c1
-0.6% | -2% | / | 7% | CS(=O)(=O)Cc1ccc(C(=O)N2CCCC2c2cccs2)cc1 (stereo not given)
-2.0% | -6% | -12 | 14% | CCNc1nnc(-c2ccncc2)s1
-0.3% | -4% | 1 | 0% | CCc1ccc(-c2nn(-c3cc(Cl)ccc3[N+](=O)[O-])c(=O)c3ccccc23)cc1
-0.9% | / | / | 9% | Cc1onc(-c2ccccc2)c1-c1nnc(COC(=O)c2ccc(O)cc2)o1
1.6% | 4% | -19 | 2% | O=C(CCCn1cc([N+](=O)[O-])cn1)NC1CCCCCC1
-1.2% | / | / | 4% | COc1ccc(CCNC(=O)c2ccc3c(=O)n4c(nc3c2)CCC4)cc1OC
-1.9% | -1% | / | 0% | CN(Cc1ccon1)C(=O)CC1C(=O)NCCN1Cc1ccccc1C(F)(F)F (stereo not given)
? | -28% | -9 | ? | N#C/C(=C\c1ccc(OC(=O)c2ccc(Br)s2)cc1)c1nc2ccccc2[nH]1
3.7% | 3% | 6 | 7% | CC1CCCN(S(=O)(=O)c2coc(C(N)=O)c2)C1 (stereo not given)
-3.6% | -3% | 3 | 9% | O=C(NC1CC1)C1CCCN(C(=O)NC2CCCCC2)C1 (stereo not given)
-0.7% | -4% | -6 | 4% | CCCn1c(SCC(=O)N2CC(=O)Nc3ccccc32)nc2ccccc21
-2.7% | 1% | / | -7% | [N-]=[N+]=NC[C@H](Cc1ccccc1)N1CCN(Cc2ccccc2)CCC1=O
-0.4% | -6% | / | -1% | CCn1cc(C(=O)N(C)c2ccc(OC)cc2OC)c2cc(OC)c(OC)cc2c1=O
-0.8% | 0% | -8 | -12% | CC(NC(=O)Nc1ncccn1)(C(F)(F)F)C(F)(F)F
4.8% | -20% | -3 | 15% | Cc1ccc(C(=O)N/N=C\c2cccn2C)cn1
1.1% | 1% | / | -8% | CN1CCN(C(=O)/C(=C\c2cccnc2)NC(=O)c2cccc(Br)c2)CC1
-0.8% | 1% | 8 | -7% | Cc1ccnc(NC(=O)CCC(=O)N(CC(=O)NCc2ccccc2)Cc2cccs2)c1
-0.2% | 2% | -6 | 1% | Cc1cc(C)c2c(=O)[nH]c(SCc3ccccc3)nc2n1
-2.2% | 0% | / | 5% | C=C(C)CN(CC)C(=O)CN1C(=O)NC2(CCCc3ccccc32)C1=O (stereo not given)
7.2% | / | / | ? | CC(=NNC(=S)N1CC2CCC(CC2)C1)c1cccc(C)n1
0.9% | 13% | / | 0% | CN(C(=O)c1cccc(NC(=O)Cc2ccccc2)c1)c1ccccc1
? | / | / | -1% | Cc1cc(C)c(S(=O)(=O)N2CCCCC2CCNC(=O)C(=O)NCC2CCCO2)c(C)c1 (stereo not given)
-1.4% | / | / | -3% | COc1ccccc1C(=O)OCc1cc(=O)n2ccsc2n1
-0.1% | 2% | 7 | 2% | O=C1C2C3C=CC(C2C(=O)N1c1ccc(O)cc1)C1C2C(=O)N(c4ccc(O)cc4)C(=O)C2C31 (stereo not given)
-3.5% | 28% | -7 | 4% | COc1c(C)cc(Br)cc1C(=O)Nc1cccc(NC(=O)c2ccco2)c1
? | -4% | -2 | -14% | C=CCOC(=O)C1=C(C)Nc2nnnn2C1c1cccc(OC)c1OC (stereo not given)
-1.4% | 0% | 3 | 2% | CCOC(=O)C1(C)NC(c2ccc(OC)cc2OC)C2C(=O)N(c3cccc(OC)c3)C(=O)C21 (stereo not given)
? | -2% | 2 | -7% | COC(=O)c1c(NC(=O)c2ccc(N(C)S(=O)(=O)c3ccc(C)cc3)cc2)sc2c1CCCC2
? | 0% | / | ? | COCc1cc(C)nc(Sc2nc3c(c(=O)n(C)c(=O)n3C)n2C)c1C#N

# High-throughput results from PubChem.
